# E coli growth = E. coli growth inhibition; 0.21% of 330,000 active; AID 1053175; OD600 absorbance (no concentration beside the values); Escherichia coli growth, OD600, 23 h; active compounds read low;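 active means OD600 absorbance below the run mean of sample wells minus 3.6 SD, in any replicate, cut at about 0.56 in these data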;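 further: stock transfer was 300 nL into about 60 µL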
# FGF22 binding = binders of recombinant human FGF22 by thermal shift | Q9HCT0 | SYPRO orange fluorescence; percent of sucrose octasulfate shift, DMSO zero | calls only at 9.99 µM | 1.5% of 340,000 active;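 active means melting point raised past a set limit in the mean and every replicate; inconclusive means no clear call; three in four hits are not shown here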
# HNF4A DNA FP = change in binding of human HNF4 alpha to DNA | P41235 | HNF4a-FITC DNA binding, fluorescence polarization, 1 h | activity change, % at 10 µM | 0.3% of 360,000 active | AID 1224865; in the data active means activity change above about 30%, passing the limit was not always enough;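 further: controls were the assay level and a saturating level of protein; the project sought stronger binding though the title names inhibitors; some compounds called inactive have numbers as strong as hits; positive values seem to mean higher polarization but the record does not say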
# B2AR ag = activates human beta-2 adrenergic receptor causing internalization; response, % (test concentration not listed); AID 504454; Am2.2-beta2AR cells, FAP receptor internalization, flow cytometry; reference of the scale not given here; P07550; 0.43% of 340,000 active;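 active means response above a set limit, near 3 SD of response in nonfluorescent compounds, cut at about 42% in these data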;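 further: stock transfer was 100 nL into about 11 µL; a reference agonist was the positive control; negative values mostly stem from fluorescent compounds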
# UCH37 DUB inh = inhibitors of human deubiquitinating enzyme UCH37; Q9Y5K5; purified proteasome/UCH37, Ub-AMC cleavage fluorescence; inhibition, % (concentration not given with the values); 0.33% of 330,000 active;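 active means mean of two replicates above 20%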;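 further: 0% = compound-free wells with enzyme and 100% = wells lacking proteasome; stock transfer was 100 nL into about 20 µL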
#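 Material: human UCH37 enzyme supplied as purified proteasome complex / Amount: 0.15 nM proteasome as dispensed / Buffer or medium: pH 7.4 Tris-HCl (50 mM) with ovalbumin, ATP-MgCl2, DTT / Times: preincubation 30 min, reaction 25 min, room temperature / Technique: AMC fluorescence from Ub-AMC cleavage, excitation 355 nm, emission 460 nm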
# ALR inh = human ALR oxidase inhibition via reduced H2O2. P55789. purified ALR, DTT oxidation, H2O2 HRP-luminol luminescence. inhibition, % (concentration not given with the values). 3.8% of 290,000 active;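 active means mean and each replicate at 75% or more; inconclusive means only one of the two met; inactive means neither met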;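 further: stock transfer was 7.5 nL into about 7.5 µL; 0% = neutral wells and 100% = wells with inactivated enzyme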
# LANA-H2A inh = blocks KSHV LANA binding to histone H2A/H2B. AID 2629. inhibition, % (no concentration beside the values). Q9QR71. cell-free LANA-H2A/H2B peptide, fluorescence polarization. 0.6% of 320,000 active; in the data active means inhibition mostly above about 10%, no sharp cut-off; inactive means mostly below about 6.7%;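 further: stock transfer was 7.5 nL into about 10 µL; 0% = median of vehicle wells and 100% = median of positive control wells; one replicate is shown; the record names a cut of 25% in any replicate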
# The depositor's hits bear a star; i = inactive; ? = inconclusive; / = no result given; + = active, no number.
nr | smiles | E coli growth | FGF22 binding | HNF4A DNA FP | B2AR ag
1 | CC1(C)OC(=O)C=C(CC2NS(=O)(=O)OC3CCCCC23)O1 (centres undefined) | 0.78 | i | -2.2 | 2.0
2 | N#Cc1c(-c2ccccc2)nc(SCC(=O)N(c2ccccc2)c2ccccc2)[nH]c1=O | 0.674 | i | 3.9 | -1.2
3 | COC(=O)c1ccc(NC(=O)Nc2ccc3c(c2)OCO3)cc1 | 0.725 | i | 0.0 | -1.9
4 | O=C(Nc1cccc(C(=O)N2CCCC2)c1)C1CCCCC1 | / | i | -0.7 | -11.8
5 | Cc1cc(C(=O)N2CCN(c3ccc([N+](=O)[O-])cc3)CC2)no1 | 0.686 | / | -1.4 | 3.9
6 | O=C(NC(=S)NC1CCCC1)c1ccccc1Br | 0.708 | / | -0.3 | -3.3
7 | CN(c1ccccc1)S(=O)(=O)c1ccc(Cl)c(C(=O)Nc2ccc(-c3nc4ccccc4[nH]3)cc2)c1 | 0.688 | / | 1.2 | 8.0
8 | CC(=O)C1C(c2ccccc2)c2c(noc2C)CC1(C)O (centres undefined) | 0.629 | i | 3.2 | 7.3
9 | C/C=C/C(=O)OCC(=O)Nc1cccc(F)c1 | 0.662 | i | -1.2 | -4.8
10 | O=C(O)CCCCCN1C(=O)c2ccc(C(=O)O)cc2C1=O | 0.699 | i | 1.7 | 3.5
11 | Cc1ccc(NC(=O)Cn2c(O)c(N=NC(=O)c3ccncc3)c3ccccc32)cc1 | 0.677 | / | 3.0 | -6.4
12 | Cc1ccc(NC(=O)O/N=C2\CCCCC2c2ccc([N+](=O)[O-])cc2[N+](=O)[O-])cc1 (centres undefined) | / | / | 2.2 | 2.6

nr | UCH37 DUB inh | ALR inh | LANA-H2A inh
1 | 0.6 | 1.2 | 1.8
2 | 1.6 | 98.1* | 3.8
3 | -2.2 | -0.3 | -3.3
4 | / | / | /
5 | 10.3 | -0.1 | 0.7
6 | 2.5 | -14.1 | 6.4
7 | -24.2 | 0.1 | -6.8
8 | -1.0 | -10.7 | 5.6
9 | 0.4 | 18.4 | 1.0
10 | -0.5 | 0.7 | 0.6
11 | 5.7 | -13.5 | -1.1
12 | / | -6.5 | 2.2

# Entries 1–2 from above:
nr | smiles | E coli growth | FGF22 binding | HNF4A DNA FP | B2AR ag
1 | CC1(C)OC(=O)C=C(CC2NS(=O)(=O)OC3CCCCC23)O1 (centres undefined) | 0.78 | i | -2.2 | 2.0
2 | N#Cc1c(-c2ccccc2)nc(SCC(=O)N(c2ccccc2)c2ccccc2)[nH]c1=O | 0.674 | i | 3.9 | -1.2

nr | UCH37 DUB inh | ALR inh | LANA-H2A inh
1 | 0.6 | 1.2 | 1.8
2 | 1.6 | 98.1* | 3.8

# (cont.)
nr | smiles | E coli growth | FGF22 binding | HNF4A DNA FP | B2AR ag
13 | O=C(Nc1cccc(F)c1)Nc1ccc2c(c1)OCO2 | 0.535 | i | -0.3 | 1.2
14 | COc1cc2[nH]c(=O)n(CCC(=O)NCCCN3CCN(c4ccccc4F)CC3)c(=O)c2cc1OC | 0.69 | i | 3.6 | -4.9
15 | COc1cccc(C2CC(c3ccc(Cl)cc3Cl)n3nc(N)nc3N2)c1 (centres undefined) | 0.719 | i | 1.8 | -1.7
16 | COc1ccc(CCN(C)C/C=C/c2ccccc2[N+](=O)[O-])cc1OC | 0.642 | i | -1.3 | -1.6
17 | COc1ccc(NC(=O)N2CCCC(C(=O)NC(C)C)C2)cc1 (centres undefined) | 0.703 | / | 0.1 | -6.6
18 | O=C(NCc1cc(C(F)(F)F)ccc1F)C1CCC(=O)N(C2CCCCCC2)C1 (centres undefined) | 0.698 | i | 5.2 | -5.4
19 | O=C(Nc1ccc(F)cc1)c1nc2c(nnn2Cc2cccc3ccccc23)c(=O)[nH]1 | 0.682 | i | -5.7 | 14.0
20 | COc1ccc(OC)c(NC(=O)CN(Cc2ccc(F)cc2)C2CCCCC2)c1 | 0.679 | i | 1.1 | -13.2
21 | Cc1ccc(CN2C(=O)CCC2C(=O)NCc2cccnc2)cc1 (centres undefined) | 0.666 | / | -2.1 | -6.6
22 | Cc1ccc(/C(O)=C2/C(=O)C(=O)N(Cc3ccco3)C2c2cccs2)cc1 (centres undefined) | 0.737 | i | 2.2 | -7.5
23 | Cn1ncc(-c2ccno2)c1C(=O)O | 0.688 | / | 2.6 | 9.9
24 | Cc1ncc(N=Nc2ccc(F)cc2)c(-c2ccc(Cl)cc2)n1 | 0.778 | / | -1.9 | -6.5

nr | UCH37 DUB inh | ALR inh | LANA-H2A inh
13 | 0.4 | -16.6 | 2.4
14 | -2.9 | -5.1 | 2.3
15 | 6.7 | 0.8 | -3.5
16 | 3.9 | -7.2 | -3.0
17 | 1.3 | / | -7.2
18 | 3.0 | 1.1 | 2.0
19 | 2.2 | / | -6.9
20 | 2.6 | -3.3 | 2.5
21 | 2.9 | -8.2 | 18.3*
22 | 9.1 | 47.0 | 4.2
23 | 2.6 | -5.0 | 1.6
24 | 3.9 | -13.7 | -1.7

# (listing goes on)
nr | smiles | E coli growth | FGF22 binding | HNF4A DNA FP | B2AR ag
25 | CC(Nc1nc(-c2ccc(F)cc2)cs1)c1nc2cc(Cl)c(Cl)cc2n1CCOCCO (centres undefined) | 0.685 | i | 2.2 | 0.4
26 | Cn1c(=O)c(C(=O)c2ccccc2)nc2ccccc21 | 0.807 | / | -0.7 | -8.7
27 | Cc1ccc(S(=O)(=O)Nc2cc(=O)[nH]c(SCc3ccc(Cl)cc3)n2)cc1 | 0.743 | i | -1.2 | -3.8
28 | Cc1nn2c(N)csc2nc1=O | 0.767 | / | / | /
29 | CCn1c(Cc2ccccc2)nnc1SCC(=O)Nc1ccccc1O | 0.731 | i | -0.4 | 3.4
30 | O=C(CCNC(=O)c1ccccc1)NN=Cc1ccc(Br)o1 | 0.66 | i | -1.1 | -1.0
31 | CC(C)c1ccc(S(=O)(=O)N(C)C2(C)CCS(=O)(=O)C2)cc1 (centres undefined) | 0.626 | i | -2.1 | 3.0
32 | CC(C)COC(=O)c1ccccc1N1C(=O)C2C3CCC(C3)C2C1=O (centres undefined) | 0.627 | i | 1.0 | 1.5
33 | CCOC(=O)Cc1csc(NC(=O)C2CCCN(S(=O)(=O)c3cnc[nH]3)C2)n1 (centres undefined) | 0.727 | i | 4.8 | -0.6
34 | Cc1ccc(NC(=O)c2cc(S(=O)(=O)c3ccccc3)ccc2Cl)cc1 | 0.696 | / | -2.2 | -1.1
35 | NC(=O)c1ccsc1NC(=O)COC(=O)CCCOc1ccccc1 | 0.698 | + | -4.6 | 4.0
36 | Cc1cc(C)n(-c2ccc(C(=O)Nc3cc(S(=O)(=O)N(C)C)ccc3Cl)cc2)n1 | 0.714 | / | 2.6 | 1.8
37 | COc1ccc2c(c1)cc(C(O)c1ccccn1)n2S(=O)(=O)c1ccccc1 (centres undefined) | 0.643 | / | 3.5 | -7.6
38 | O=c1c2ccccc2nc2n1C(CSc1ccccc1)CS2 (centres undefined) | / | i | 1.5 | -1.4

nr | UCH37 DUB inh | ALR inh | LANA-H2A inh
25 | 0.3 | 18.6 | -1.9
26 | 2.6 | -6.2 | 0.6
27 | 2.5 | / | 2.3
28 | 1.5 | 8.2 | -11.8
29 | 1.1 | ? | 5.3
30 | 0.0 | -2.2 | 5.0
31 | -1.9 | -4.0 | -2.6
32 | 1.2 | -6.1 | 3.6
33 | 5.0 | -20.2 | 5.0
34 | 0.8 | -1.2 | 3.2
35 | 1.9 | / | /
36 | 0.5 | -6.0 | 1.3
37 | 2.2 | -3.6 | 0.4
38 | / | -9.0 | 3.7

# Some of these compounds in order of count of non-hydrogen atoms, highest first:
nr | smiles | E coli growth | FGF22 binding | HNF4A DNA FP | B2AR ag
37 | COc1ccc2c(c1)cc(C(O)c1ccccn1)n2S(=O)(=O)c1ccccc1 (centres undefined) | 0.643 | / | 3.5 | -7.6
27 | Cc1ccc(S(=O)(=O)Nc2cc(=O)[nH]c(SCc3ccc(Cl)cc3)n2)cc1 | 0.743 | i | -1.2 | -3.8
29 | CCn1c(Cc2ccccc2)nnc1SCC(=O)Nc1ccccc1O | 0.731 | i | -0.4 | 3.4
31 | CC(C)c1ccc(S(=O)(=O)N(C)C2(C)CCS(=O)(=O)C2)cc1 (centres undefined) | 0.626 | i | -2.1 | 3.0

nr | UCH37 DUB inh | ALR inh | LANA-H2A inh
37 | 2.2 | -3.6 | 0.4
27 | 2.5 | / | 2.3
29 | 1.1 | ? | 5.3
31 | -1.9 | -4.0 | -2.6

# Screening results deposited in PubChem BioAssay by several laboratories.

# An excerpt; count on the stated rates, not on these rows.
